Screening data as filed in PubChem.
Anthrax LT inh – anthrax lethal toxin internalization inhibition. Cells, anthrax lethal toxin internalization, FRET ratio (460/530). Potency, µM (top dose mostly 40 µM), without a hit: top-dose activity change, negative = inhibition, actives largely listed as inhibitors. 70,000 tested, 0.67% active; active = well fitted falling ratio curve with the 530 nm signal flat; inconclusive = other ratio curves, or a change in one channel alone; inactive = flat curves in the ratio and both channels; the % refers to the ratio; also: % is scaled to controls: 0 for no effect and ±100 for the full control effect; nearly all actives have a fitted effect of over 50% in size; tested in ME-180 cells; beta-lactamase reporter
Prx2 Sm inh – inhibitors of Schistosoma mansoni peroxiredoxin 2; 65,000 tested, 0.07% active; S. mansoni Prx2 activity coupled to TGR/GSH (TGR is thioredoxin glutathione reductase), NADPH fluorescence loss, qHTS; some inactives read as strong as hits; Potency, µM; AID 448; active means full or partial inhibition curve with a strong effect at the top dose; inconclusive means weaker partial or single-point curve; inactive means no accepted curve; also: series up to 57 µM; many of its hits are not listed in these tables
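Prx2 activity was followed as the loss of NADPH fluorescence (ex 365/em 450 nm), read every 30 sec for 8 min after H2O2 start. The enzyme mix (50 nM Prx2, 25 nM TGR, GSH, NADPH; pH 7.4 phosphate buffer) was incubated with compound for 15 min at room temperature first.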
Active calls of the source: *; ? = inconclusive; · = not tested or not shown; & = joins results of further samples; [ ] = another dose, or the depositor's remark. Potency is read from the fitted curve at half-maximal effect.

nr | Molecule | Anthrax LT inh | Prx2 Sm inh
1 | CC(C)C[C@H](NC(=O)OC(C)(C)C)c1nnc(SCC(=O)Nc2ccc(Br)cc2)o1 | ? | >57
2 | O=C1c2ccccc2C(=O)N1C1(C(=O)NC2(C(=O)O)CCCC2)CCCC1 | -4%[8 µM] | >57
3 | CCOc1ccc(CNC(=O)CCn2c(=O)oc3ccccc32)cc1OC | 8% | >57
4 | COc1cc(Cn2c(=O)oc3ccc(C)cc32)ccc1OC(C)C | -13% | >57
5 | CCN1C(=O)c2cccc3c(S(=O)(=O)Nc4ccccc4OC)ccc1c23 | -22% | >57
6 | COCCNC(=O)C(c1ccc(O)cc1)N(Cc1ccco1)C(=O)CCC(=O)Nc1nccs1 (stereo not given) | -1% | >57
7 | NC(=O)C1CCN(C(=O)C2c3ccccc3C(=O)N3CCc4ccccc4C23)CC1 (stereo not given) | -3% | >57
8 | COC(=O)c1cccc(NC(=O)CN2CCN(c3ccc(OC)cc3)CC2)c1 | 5% | >57
9 | CN(c1ccccc1)S(=O)(=O)c1cc(C(=O)c2nccn2C)ccc1Cl | -11% | >57
10 | Cc1cc(O)cc(O)c1-c1onc(C(F)(F)F)c1-c1cscn1 | ? | >57
11 | O=Nc1ccc(NO)cc1 | 2% | ·
12 | O=C(Nc1ccc2nccnc2c1)c1cnccn1 | -6% | >57
13 | O=C(OCn1nnc2ccccc2c1=O)c1ccc(Br)o1 | -8% | >57
14 | Cc1cccc2cc(CN(Cc3ccco3)C(=O)NC3CCCCC3)c(=O)[nH]c12 | 12% | >57
15 | Cc1ccc(-c2nc3cc(NC(=O)C(C)C)ccc3o2)cc1C | 16% | >57
16 | O=C(c1ccco1)N1CCC2(CCCN(c3ccncc3)C2)CC1 | 7% | >57
17 | CC(C)COC(=O)C1C(=O)CC(C)(O)C(C(=O)OCC(C)C)C1c1cccnc1 (stereo not given) | 1% | >57
18 | CCNc1ncc2nc(-c3cc(F)cc(F)c3)c(=O)n(CCC#N)c2n1 | ? | >57
19 | Cc1ccc(C(C)C)c(OCC(=O)Nc2ccccc2N2CCN(C)CC2)c1 | ? | >57
20 | Cc1occc1C(=O)Nc1ccc2c(c1)OCCO2 | 6% | >57
21 | O=C(NCCCNCc1ccccc1)c1ccc(/C=N/O)nc1 | -4% | ·
22 | Cc1ccc(C)c(NC(=O)CNS(=O)(=O)c2ccccc2)c1 | 5% | >57
23 | CCOC(=O)C1=C(c2ccccc2)NC(SC)=C(C#N)C1c1ccco1 (stereo not given) | ? | >57
24 | CC(C)N1CC(O)=C(c2ccccc2)C1=N | -13% | >57
25 | O=C(Cn1nc(-c2ccc(Cl)cc2)ccc1=O)NCCCN1CCN(Cc2ccccc2)CC1 | ? | >57
26 | Cc1ncc([N+](=O)[O-])n1CCN=[N+]=[N-] | 3%[8 µM] | >57
27 | COc1cc(OC)c(NC(=O)CCNS(=O)(=O)c2cc(Br)cnc2N)cc1Cl | -22% | >57
28 | O=C(NCc1ccccc1)c1c[nH]c2ccc(S(=O)(=O)Nc3ccc4c(c3)OCCO4)cc2c1=O | -6% | >57
29 | COc1ccc(-c2cc(C(=O)N3CCN(Cc4ccccc4)CC3)no2)cc1OC | -5% | >57
30 | CC(=O)OCCn1c(=O)c2cc3c(=O)n(CCOC(C)=O)c(=O)c3cc2c1=O | -3% | ·
31 | O=C(Nc1nncs1)c1ccccc1NS(=O)(=O)c1cccs1 | -9% | >57
32 | Clc1ccc(C2=CCC[C@H]3CC[C@@H]2N3)cn1 | -26% | >57
33 | CCOC(=O)C1CCN(C(c2cc(OC)c(OC)c(OC)c2)c2sc3nc(C)nn3c2O)CC1 (stereo not given) | 16µM* | >57
34 | c1ccc2n[nH]nc2c1 | -5% | ·
35 | COc1ccc(C)cc1N | 1% | ·
36 | O=C(c1cccs1)N1CCN(Cc2nc3ccccc3c(=O)[nH]2)CC1 | -10% | >57
37 | CCN(CC)CCN1C(=O)c2oc3ccccc3c(=O)c2C1c1ccc(F)cc1 (stereo not given) | 3% | >57
38 | CC(C)c1nc(N2CCN(C(=O)c3ccccc3)CC2)c(C#N)c2c1COC(C)(C)C2 | -10% | >57
39 | Cn1c(SCC(=O)Nc2cc(=O)n(C)c(=O)n2C)nnc1-c1cccs1 | 1% | ·
40 | O=C1c2ccccc2C(=O)N1CC(O)COCc1ccccc1 (stereo not given) | 4% | >57
41 | CC1(C)Cc2cccc(OCC(=O)Nc3nccs3)c2O1 | -7% | >57
42 | OCCNCC1(O)C2CC3CC(C2)CC1C3 (stereo not given) | 7% | >57
43 | Cc1ccc(Cl)cc1NC(=O)c1ocnc1C | -1% | >57
44 | Cc1ccc2cc(CN(Cc3nnnn3Cc3ccco3)CC3CCCO3)c(=O)[nH]c2c1C (stereo not given) | -7% | >57
45 | COC(=O)[C@@]1(Cc2ccccc2)[C@H]2c3cc(C(=O)N(C)C)n(Cc4cc(C)n(C)n4)c3C[C@H]2CN1C(=O)c1ccccc1 | -4% | >57
46 | Cc1nnc2sc(-c3ccc(NC(=O)c4ccc(-c5ccc(Br)cc5)o4)cc3)nn12 | -1% | >57
47 | CC(C)NS(=O)(=O)c1ccc(OCC(=O)N2CCN(Cc3ccccc3)CC2)c(Cl)c1 | 0% | >57
48 | CCOc1ccc(NC(=O)C2CCN(C(=O)NCc3ccccc3)CC2)cc1 | ? | >57
49 | CCN(CC)S(=O)(=O)c1cccc(C(=O)Nc2ccccc2C(=O)N2CCOCC2)c1 | 0% | >57
50 | CCSc1nc(C)nc2c1oc1ccccc12 | ? | >57
51 | COc1ccc(CC(=O)NCc2ccccc2Cl)cc1S(=O)(=O)N1CCOCC1 | 4% | >57
52 | NC1=NCc2ccccc21 | -4% | >57
53 | COc1ccccc1CN1CCC2(CC1)CCN(C(=O)c1ccncc1)CC2 | ? | >57
54 | COC(=O)c1ccc(C2CC(=O)NC3=C2C(=O)CCC3)cc1 (stereo not given) | -9% | >57
55 | CN1CCN(S(=O)(=O)c2ccc(NC(=O)c3ccc(F)cc3)cc2)CC1 | -13% | >57
56 | CN(C)CCC[C@@H]1c2ccccc2Oc2ccc(C(F)(F)F)cc21 | -3%[8 µM] | >57
57 | CN(C)c1ncc2ncc(=O)n(Cc3cccs3)c2n1 | -4% | >57
58 | Cn1c(=O)[nH]c(=O)c2[nH]c(CN3CCN(C(=O)c4ccco4)CC3)nc21 | -5% | >57
59 | COc1c2occc2c(OC)c2c(=O)cc(C(F)(F)C(F)(F)F)oc12 | -13% | >57
60 | CC(=O)OC[C@@H]1O[C@H](CCO/N=C(\C)CCN2CCc3nc(-c4ccccc4)c(-c4ccccc4)cc3C2)C=C[C@@H]1OC(C)=O | -4%[8 µM] | ·

Next section
nr | Molecule | Anthrax LT inh | Prx2 Sm inh
61 | Cc1cccnc1NC(=O)C1CCN(S(=O)(=O)c2ccc3c(c2)CCC(=O)N3)CC1 | -1% | >57
62 | COc1cccc(NC(=O)CN2CCN(c3ccc(F)cc3)CC2)c1 | -6% | >57
63 | CCOC(=O)c1cc(C(C)(C)C)oc1CN | -21% | >57
64 | COc1ccc(CCNC(=O)C2CCCN(Cc3nc(-c4ccccc4C)oc3C)C2)cc1OC (stereo not given) | 14% | >57
65 | O=C(NCCN1CCCCC1)Nc1ccc(F)c(Cl)c1 | 7% | >57
66 | Cc1cc(C)n(CCc2nc3c4ccccc4n(CC(=O)Nc4ccc(Cl)cc4F)c(=O)n3n2)n1 | -9% | >57
67 | Cn1cccc1Cc1nnc(SCC(=O)Nc2nccs2)n1CCc1ccccc1 | 10% | >57
68 | COC(=O)CNC(=O)Cn1ccc2ccccc2c1=O | -7% | >57
69 | Cc1nc2ccccc2n1C1CCN(Cc2nnnn2CCc2ccccc2)CC1 | -1% | >57
70 | Cn1c(-c2ccccc2)cnc1SCC(=O)NCc1ccco1 | -11% | >57
71 | C[C@H](Oc1ccc(Oc2cnc3ccc(Cl)cc3n2)cc1)C(=O)O | -5%[8 µM] | >57&>57
72 | COc1cccc(-c2nnc(SCC(=O)N3CCCc4ccccc43)o2)c1 | 6% | >57
73 | Cc1ccc2nc(NC(=O)C3CCCN(S(=O)(=O)c4cnc[nH]4)C3)sc2c1 (stereo not given) | ? | >57
74 | CCCn1c(SCC(=O)Nc2ccccc2N2CCCCC2)nc2c1c(=O)n(C)c(=O)n2C | ? | >57
75 | O=C(O)CNC(=O)c1ccc(OC(F)F)cc1 | 20% | >57
76 | c1ccc(-c2csc(N3CCCCCC3)n2)cc1 | 14% | >57
77 | CS(=O)(=O)N(CCc1ccccc1)CC(=O)N1CCN(c2ccccc2F)CC1 | 1% | >57
78 | CCOCC(O)CS(=O)Cc1ccccc1 (stereo not given) | -4% | ·
79 | O=c1cnc2cnc(N3CCOCC3)nc2n1C[C@H]1CCCO1 | 1% | >57
80 | CN(C(=O)c1ccno1)c1nnc(-c2cccnc2)s1 | -12% | >57

7 entries drawn at random from the list so far, as already listed:
nr | Molecule | Anthrax LT inh | Prx2 Sm inh
49 | CCN(CC)S(=O)(=O)c1cccc(C(=O)Nc2ccccc2C(=O)N2CCOCC2)c1 | 0% | >57
25 | O=C(Cn1nc(-c2ccc(Cl)cc2)ccc1=O)NCCCN1CCN(Cc2ccccc2)CC1 | ? | >57
10 | Cc1cc(O)cc(O)c1-c1onc(C(F)(F)F)c1-c1cscn1 | ? | >57
33 | CCOC(=O)C1CCN(C(c2cc(OC)c(OC)c(OC)c2)c2sc3nc(C)nn3c2O)CC1 (stereo not given) | 16µM* | >57
11 | O=Nc1ccc(NO)cc1 | 2% | ·
13 | O=C(OCn1nnc2ccccc2c1=O)c1ccc(Br)o1 | -8% | >57
57 | CN(C)c1ncc2ncc(=O)n(Cc3cccs3)c2n1 | -4% | >57

New compounds follow
nr | Molecule | Anthrax LT inh | Prx2 Sm inh
81 | COc1cc2c(cc1NC(=O)c1cncc(Br)c1)oc1ccccc12 | ? | >57
82 | Nc1ccc(Cc2ccc(N)cc2)cc1 | -2% | ·
83 | CN(C)c1ccc(NC(=O)CSc2nc3ccccc3c(=O)n2C2CCCCC2)cc1 | -13% | >57
84 | O=C(NCCC1=CCCCC1)C1CCN(Cc2cnn(-c3ccccc3)c2-n2cccc2)CC1 | -2% | ·
85 | CC(C)(C)C1CCC2(CC1)NC(CO)(CO)CO2 (stereo not given) | 13% | >57
86 | COc1ccc(-c2noc(CCC(=O)NCCN3CCN(c4ccccc4F)CC3)n2)cc1 | -4% | >57
87 | Cn1c(C(F)(F)F)nc2c(=O)oc3ccccc3c21 | 3% | >57
88 | CCN1C(=O)c2ccccc2S(=O)c2ccc(C(=O)NCc3ccccn3)cc21 (stereo not given) | 5% | >57
89 | C=C(C)Cn1c(C2CC(=O)N(c3ccccc3F)C2)nc2ccccc21 (stereo not given) | -9% | >57
90 | O=C1c2ccccc2C(O)N1Cc1ccc2c(c1)OCO2 (stereo not given) | -5% | >57
91 | CCc1ccc(NC(=O)c2cc(CC(C)C)on2)cc1 | -29% | >57
92 | O=c1c2ccccc2nc(CN2CCOCC2)n1-c1ccccc1F | 8% | >57
93 | CCOC(=O)c1cc2occc2n1CC(=O)NC1CCC(C)CC1 (stereo not given) | -14% | >57
94 | CCc1ccccc1N(CC)C(=O)CCc1nc(-c2ccc(C)cc2)no1 | -20% | >57
95 | CN1CCN(S(=O)(=O)c2ccc(N3CCN(S(=O)(=O)/C=C/c4ccccc4)CC3)nc2)CC1 | 15% | >57
96 | Cc1ccc(S(=O)(=O)N[C@H](CO)C(=O)O)cc1 | ? | >57
97 | CCc1ccccc1Nc1nc(N)nc(CSCC(=O)c2cc(C)n(C)c2C)n1 | 5% | >57
98 | c1cnc(NCCNc2ncccn2)nc1 | -10% | >57
99 | COc1ccc2c(c1)c(C(O)CN1CCN(Cc3ccc4c(c3)OCO4)CC1)c(C)n2C (stereo not given) | · | >57
100 | COC(=O)c1cccc(NC(=O)c2cc3sccc3n2C)c1 | ? | >57
101 | CCOC(=O)c1c(NC(N)=O)sc(C)c1C | 3% | >57
102 | Cc1nnc2ccc(N3CCN(C(=O)c4ccccc4)CC3)nn12 | 0% | >57
103 | Cc1noc(C)c1CSc1nc2ccccc2s1 | ? | >57
104 | Cc1c(C)c2c(c(C)c1O)CC[C@@](C)(CCC[C@@H](C)CCC[C@@H](C)CCCC(C)C)O2 | -12%[3.58 µM] | >57
105 | CCn1c(SCC(=O)NCCc2ccccc2)nnc1-c1ccco1 | -7% | >57
106 | FC(F)(F)C(Oc1nc(NC2CCCCC2)nc(N2CCOCC2)n1)C(F)(F)F | -18% | >57
107 | O=C1C2C3C=CC(C3)C2C(=O)N1Cc1ccccc1 (stereo not given) | 2% | >57
108 | CCOC(=O)c1[nH]c2ccc(C)cc2c1N=C(C)N(C)C | -1% | >57
109 | O=c1cnc2cnc(Oc3cccc(Cl)c3)nc2n1C1CC1 | -4% | >57
110 | COc1ccc(CC(=O)Nc2cccc(-c3nnc(-c4ccc(C)cc4)o3)c2)cc1OC | 3.2µM* | >57
111 | Cc1cc(NC(=O)c2cc(CC(C)C)on2)n(-c2ccccc2)n1 | -24% | >57
112 | CCOC(=O)c1c(C)[nH]c(C(=O)CN2CCOCC2)c1C | 10% | >57
113 | O=c1cnc2cnc(N3CCNCC3)nc2n1Cc1cccs1 | 11% | >57
114 | O=C(NCc1ccco1)c1cccs1 | ? | >57
115 | Cc1nn(CC(=O)Nc2ccc3c(c2)nc(CN2CCCC2)n3C)c(=O)c2ccccc12 | -6% | >57
116 | CCCc1cc(C(=O)N(C2CCCCC2)C2CCCCC2)no1 | -1% | >57

Not all compounds are listed; rates above refer to the full screens.
